# StopGo FLuc – lowers the firefly signal of an FMDV 2A StopGo reporter; HEK cells with a luciferase reporter of 2A StopGo recoding; Potency, µM (highest dose often 57.5 µM), for inactives: at the highest dose signal change, negative = less light; 120,000 compounds, 0.23% hits; AID 1745856; active = well fitted falling curve with a large enough effect; inconclusive = small, poorly fitted or top-dose-only effect; inactive = no such curve, though single readings can be large or run the other way; further: nearly all actives have a fitted effect of over 60% in size; overnight with compound
# StopGo RLuc – FMDV 2A StopGo reporter, Renilla signal. HEK cells with a luciferase reporter of 2A StopGo recoding. Potency, µM (highest dose often 57.5 µM), for inactives: at the top dose signal change, negative = less light. 120,000 compounds, 0.32% hits. AID 1745857; active means well fitted falling curve with a large enough effect; inconclusive means small, poorly fitted or top-dose-only effect; inactive means no such curve, though single readings can be large or run the other way; further: nearly all actives have a fitted effect of over 55% in size; overnight with compound
# * marks the source's active call; other numbers are inactive results; u = inconclusive; & = joins results of further samples; [ ] = dose if it differs, or a comment. On the % scale 0 is the no-effect control and ±100 the full control effect; potency means the concentration at half of the fitted maximal effect.
SMILES,StopGo FLuc,StopGo RLuc
CSc1ccc(CN(C)CC(=O)NC(=O)NCc2ccco2)cc1,6%,-8%
NCc1ccc(COc2ccccc2)cc1,99%[activator],-5%
Cc1cc(C(C)(C)C)ccc1OCC(O)Cn1nc(-c2cccs2)oc1=O (stereo not given),5%,37%[activator]
COc1ccc(N(CC(=O)N2CCN(c3ccccc3F)CC2)S(=O)(=O)c2c(C)noc2C)cc1,-16%,-15%
COc1ccc(-c2nn(C)c3sc(C(=O)N4CCN(c5cccc(Cl)c5)CC4)cc23)cc1OC,-11%,-6%
O=C(COC(=O)c1ccc(N2CCCC2=O)cc1)c1ccc2c(c1)CCC2,6%,-5%
CCC(Sc1nc2ncccc2o1)C(=O)Nc1ccc(OC)c(OC)c1 (stereo not given),40%[activator],-1%
Cc1ccc(C(=O)N(Cc2ccco2)Cc2ccco2)cc1,-20%,63%[activator]
Cc1cc(C)cc(C(=O)NCCn2nc(-c3ccc(F)cc3)ccc2=O)c1,14%,10%
O=C(NCC1(c2ccccc2)CC1)c1cc(=O)c2ccccc2o1,-25%,-15%
O=C(NCc1ccccc1F)C1CCN(c2nnc(-n3cccc3)s2)CC1,102%[activator],5%
COc1cccc(Oc2nc(-c3ccncc3)nc3ccccc23)c1,6%,-6%
CC(C)c1nn2c(=O)cc(COC(=O)Cc3ccccc3)nc2s1,-18%,-8%
Cc1cccc(NC(=O)C(C)OC(=O)c2cc[n+]([O-])cc2)c1 (stereo not given),20%,6%
CCOc1ccc(CN2CCc3nc(N4CCN(c5ccccn5)CC4)ncc3C2)cc1OC,u,u
CC(NS(=O)(=O)c1ccc(F)cc1F)C(=O)N1CCCC1 (stereo not given),-5%,0%
O=C(Nc1c(NCc2ccccc2)c2ccccc2oc1=O)c1ccccc1Br,22%,40%[activator]
CCOC(=O)N1CCN(CCC(=O)Nc2cccc(F)c2)CC1,19%,-5%
CCS(=O)(=O)Nc1ccc(N2CCCC(CN3CCCC3)C2)c(C(=O)O)c1 (stereo not given),0%,0%
CC(=O)c1c(C)nc(C2CC2)nc1SCC(=O)NC1CC1,-2%,-7%
COc1ccccc1CNC(=O)C1CCN(S(=O)(=O)c2ccc3c(c2)CCCN3C(C)=O)CC1,0%,171%[activator]
Cc1cccc(CS(=O)(=O)C(C)C(=O)N(C)Cc2cccc(F)c2)c1 (stereo not given),1%,16%
CC(=O)c1cccc(NS(=O)(=O)c2cc(-c3nc(-c4ccccc4)no3)sc2C)c1,u,22%
Cc1ccc(NC(=O)c2cnc3sc(N4CCOCC4)nn3c2=O)cc1N(C)C,6%,-5%
Cc1ccc(C2=NC(c3ccc(F)cc3)=Nc3ccc(Cl)cc3N2)o1,23%,56%[activator]
CCOc1ccc(/C=C\C(=O)NC23CC4CC(CC(C4)C2)C3)cc1,-20%,-10%
O=C(NC1CCCCCCC1)c1ccccc1C(F)(F)F,32%,55%[activator]
CCc1cccc(NC(=O)CSc2nncn3c2cc2sccc23)c1,14%,3%
Cc1ccc(C(=O)c2sc(Nc3cccc(Cl)c3)nc2N)cc1,0%,-5%
O=C(Cc1ccc(NC(=O)N2CCSc3ncccc32)cc1)NCc1cccc(Cl)c1,0%,-9%
Cc1[nH]c2ccc(C(=O)N(C)C3CCS(=O)(=O)C3)cc2c1C (stereo not given),-2%,-12%
O=S1(=O)CCN(Cc2c(F)cccc2F)c2c(F)nc(N3CCOCC3)c(F)c21,14%,15%
COc1ccc(CCNC(=O)CCn2c(=O)c3ccccc3n(CC(=O)Nc3cccc(C)c3)c2=O)cc1OC,0%,3%
N#CC(C#N)=Cc1c[nH]c2ccccc12,-6%,-13%
COc1ccc(Nc2oc(/C=C/c3cc(OC)c(OC)c(OC)c3)nc2C#N)cc1,51%[activator],70%[activator]
Cc1ccc(NC(=O)c2sc3ncnc(N(C)C4CCCCC4)c3c2C)c(C)c1,-15%,-6%
O=S(=O)(c1ccc(Cl)s1)N1CCOc2ccc(COCc3ccccc3)cc2C1,16%,28%
CCCCCCC(=O)Nc1ccc(C)cc1C,64%[activator],6%
Cc1cc(C)c(NC(=O)CSc2nc(=O)n(Cc3ccco3)c3c2CCC3)c(C)c1,0%,139%[activator]
CCN(Cc1nc(-c2ccc(OC)c(OC)c2)no1)C(=O)Nc1cccc2ccccc12,18%,11%
CC(C)CNC(=O)CSc1nnc(COc2ccccc2Cl)o1,21%,1%
CCCCNC(=O)c1cccc(NC(=O)c2ccc(F)cc2)c1,32%[activator],175%[activator]
CC(C)N(C(=O)Cn1cc(SCC(=O)Nc2ccccc2C(F)(F)F)c2ccccc21)C(C)C,-18%,-25%
COc1ccc(OC)c(NC(=O)c2cc(=O)c3ccc(C)cc3o2)c1,-5%,-1%
COc1ccc(C(=O)N2c3ccc(C)cc3C(C)(c3ccccc3)CC2(C)C)cc1 (stereo not given),0%,-2%
COC(=O)c1ccc(C(=O)OC)c(NC(=O)N2CC3CCCN3c3ccccc32)c1 (stereo not given),14%,-14%
CCN(CC)C(=O)c1sc2c(c1C)c(=O)n(-c1ccc(OC)cc1OC)c(=O)n2CC(=O)c1ccc(Cl)cc1,-22%,-16%
Fc1ccc(-c2nc(CN3CCCC3c3cccs3)co2)cc1 (stereo not given),20%,1%
CCCNc1c(NC(=O)Nc2ccc(Cl)cc2)c(=O)oc2ccccc12,-4%,-14%
COc1ccc(CNCCc2cccc(Cl)c2)cc1,6%,0%
CCc1nn(CC(=O)NCCN(CC(C)C)CC(C)C)c(=O)c2cc3sc(C)cc3n12,5%,-10%
Cc1ccc(NC(=O)CC2Oc3ccc(C)cc3NC2=O)c(C)c1 (stereo not given),-4%,-7%
O=C(CCc1c[nH]c2ccccc12)Nc1nnc(C2CCCCC2)s1,24%,-6%
Cc1nc(C)c(C(=O)C2=C(O)C(=O)N(CCN3CCOCC3)C2c2ccc(Cl)cc2)s1 (stereo not given),17%,-3%
O=C(CSCc1ccc(F)cc1)N1CCN(c2ccccc2F)CC1,53%[activator],-3%
O=C1CC(C(=O)NCc2ccc(C(F)(F)F)cc2)c2ccccc2N1 (stereo not given),-19%,-10%
CCN(CC)S(=O)(=O)c1ccc(-c2csc(-c3ccccc3OC)n2)cc1,128%[activator],30%
Cc1cc(=O)oc2cc(OCC(=O)N3CCOCC3)ccc12,15%,1%
CN(C)C(=O)CNC(=O)c1cc2sccc2n1Cc1ccccc1,71%[activator],-1%
Cc1cc(Cl)ccc1NS(=O)(=O)c1ccc2c(c1)CCN2S(C)(=O)=O,-19%,-7%

# Next part.
SMILES,StopGo FLuc,StopGo RLuc
CCNC(=O)N(C)Cc1nc(-c2ccc(C)cc2)no1,43%[activator],9%
COc1cccc2c1cc1c(=O)n(CC(=O)N3CCC(C)CC3)nc(C)n12,-3%,1%
N#CCC(=O)c1ccc2c(c1)OCO2,21%,18%
CCCNC(=O)C1CN(C(=O)c2nn(Cc3ccccc3)c(=O)c3ccccc23)c2ccccc2O1 (stereo not given),1%,-2%
COCCCn1c(=N)c(C(=O)NCC2CCCO2)cc2c(=O)n3cc(C)ccc3nc21 (stereo not given),-7%,-5%
COCCCNC(=O)C[C@H]1C[C@@]2(C(=O)OC)C(=C[C@H](COCc3ccccc3)O[C@@H]2C)N(CCc2ccc(OC)c(OC)c2)C1=O,1%,11%
CCCn1cc(S(=O)(=O)c2ccc(OC)cc2)c(=O)c2cc(F)c(N3CCCCCC3)cc21,-13%,7%
Cc1c2cnn(-c3ccccc3)c(=O)c2c(C)n1C(C)C(=O)Nc1ccccc1C(F)(F)F (stereo not given),u,u
Oc1ccc(-n2nnnc2SCc2ncc(-c3ccccc3)o2)cc1,u,u
CC(C)=CC(=O)OC(C)C(=O)Nc1ccc(N2CCOCC2)cc1 (stereo not given),13%,7%
COc1ccc(C(CN(C)C)C2(O)CCCCC2)cc1 (stereo not given),-16%,-9%
CC1(C)CC(=O)C2=C(C1)OC1=C(C(=O)CC(C)(C)C1)C2c1ccccc1C(F)(F)F,25%,23%
CC(Sc1cccc2cccnc12)C(=O)NC(=O)NC(C)(C)C (stereo not given),-1%,5%
CSc1cccc(NC(=O)CCc2ncc(-c3ccccc3)o2)c1,137%[activator],2%
CC(=O)N1c2ccc(S(=O)(=O)N3CCN(c4cccc(Cl)c4)CC3)cc2CC1C (stereo not given),-10%,-11%
COCCN1C(=O)c2oc3cc(C)cc(C)c3c(=O)c2C1c1cccc(O)c1 (stereo not given),-9%,6%
CCCCOc1cccc(C(=O)Nc2cc3nn(-c4ccc(F)cc4)nc3cc2C)c1,52%[activator],-9%
c1ccc2c(-c3csc(NC4CC4)n3)c[nH]c2c1,37%[activator],-14%
CCCOc1ccc(NC(=O)CC2C(=O)N(c3cccc(OC)c3)C(=O)N2CCc2ccncc2)cc1 (stereo not given),-24%,-8%
COc1cccc(N2CCN(C(C(=O)O)c3c[nH]c4ccc(NC(=O)CCC(=O)O)cc34)CC2)c1 (stereo not given),-17%,-16%
COc1cccc(CNC(=O)N2CCN(C(=O)c3ccccc3)CC2)c1,18%,2%
CC(=O)Nc1ccc(S(=O)(=O)NCC2CCC(C(=O)NCCc3ccccc3)CC2)cc1 (stereo not given),44%&-11%[activator],17%&-12%
CCCCCOc1ccc(/C=C/C(=O)c2ccc(O)cc2)cc1OC,31%[activator],5%
CCC1CCCCN1c1nc(-c2ccncc2)nc2ccccc12 (stereo not given),u,u

# 15 consecutive compounds already listed, for reference:
SMILES,StopGo FLuc,StopGo RLuc
CCCn1cc(S(=O)(=O)c2ccc(OC)cc2)c(=O)c2cc(F)c(N3CCCCCC3)cc21,-13%,7%
Cc1c2cnn(-c3ccccc3)c(=O)c2c(C)n1C(C)C(=O)Nc1ccccc1C(F)(F)F (stereo not given),u,u
Oc1ccc(-n2nnnc2SCc2ncc(-c3ccccc3)o2)cc1,u,u
CC(C)=CC(=O)OC(C)C(=O)Nc1ccc(N2CCOCC2)cc1 (stereo not given),13%,7%
COc1ccc(C(CN(C)C)C2(O)CCCCC2)cc1 (stereo not given),-16%,-9%
CC1(C)CC(=O)C2=C(C1)OC1=C(C(=O)CC(C)(C)C1)C2c1ccccc1C(F)(F)F,25%,23%
CC(Sc1cccc2cccnc12)C(=O)NC(=O)NC(C)(C)C (stereo not given),-1%,5%
CSc1cccc(NC(=O)CCc2ncc(-c3ccccc3)o2)c1,137%[activator],2%
CC(=O)N1c2ccc(S(=O)(=O)N3CCN(c4cccc(Cl)c4)CC3)cc2CC1C (stereo not given),-10%,-11%
COCCN1C(=O)c2oc3cc(C)cc(C)c3c(=O)c2C1c1cccc(O)c1 (stereo not given),-9%,6%
CCCCOc1cccc(C(=O)Nc2cc3nn(-c4ccc(F)cc4)nc3cc2C)c1,52%[activator],-9%
c1ccc2c(-c3csc(NC4CC4)n3)c[nH]c2c1,37%[activator],-14%
CCCOc1ccc(NC(=O)CC2C(=O)N(c3cccc(OC)c3)C(=O)N2CCc2ccncc2)cc1 (stereo not given),-24%,-8%
COc1cccc(N2CCN(C(C(=O)O)c3c[nH]c4ccc(NC(=O)CCC(=O)O)cc34)CC2)c1 (stereo not given),-17%,-16%
COc1cccc(CNC(=O)N2CCN(C(=O)c3ccccc3)CC2)c1,18%,2%

# Following part:
SMILES,StopGo FLuc,StopGo RLuc
Cc1ccc(NS(=O)(=O)c2c[nH]c3ccc([N+](=O)[O-])cc23)cc1,8%,237%[activator]
Cc1cccc(C)c1NC(=O)CSc1nc2c(cc1C#N)CCCC2,4%,-2%
CCCCC1=NC2(CCCC2)C(=O)N1Cc1ccc(-c2ccccc2-c2nn[nH]n2)cc1,-15%,2%
CCCC(=O)Nc1ccc(S(=O)(=O)NCCn2nc(-c3ccc(F)cc3)ccc2=O)cc1,-2%,23%
C/C=C/Cn1c(SCCc2ccccc2)nc2c1c(=O)[nH]c(=O)n2C,-4%,-13%
CC(=O)Nc1ccc(NC(=O)CSC2=C(C#N)C(c3ccccc3F)CC(=O)N2)cc1 (stereo not given),2%,10%
COc1ccc(CN(C(=O)c2cc(=O)c3ccccc3o2)C2CCS(=O)(=O)C2)cc1OC (stereo not given),-3%&-12%,-8%&8%
CC(=O)Nc1ccc(NC(=O)CSc2nc3ccccc3nc2N2CCOCC2)cc1,-3%,10%
Cc1cccc(C)c1NC(=O)N1CCC(C(N)=O)(N2CCCCC2)CC1,0%,0%
CC(C)NC(=O)C1CCCN(S(=O)(=O)c2ccc3c(ccn3C)c2)C1 (stereo not given),-12%,6%
O=C(NC1CCCc2ccccc21)c1cc(-c2ccncc2)nc2ccc(Cl)cc12 (stereo not given),18%,17%
Cc1cccc(OCc2nc(CC(=O)Nc3ccc(C)c(C)c3)cs2)c1,31%[activator],19%
CSCCC(=O)NCc1ccccc1F,10%,-8%
Cc1ccc(NC(=O)C2Cc3ccc(C)cc3S2)cc1 (stereo not given),0%,15%
O=c1[nH]c(=O)c2ccccc2o1,-11%,0%
COc1ccc(S(=O)(=O)NC2CCN(C(=O)Nc3ccc(Br)cc3F)CC2)cc1,2%,30%
COc1ccccc1Cn1c(CNS(=O)(=O)c2ccc(CC(C)C)cc2)nc2cccnc21,-8%,186%[activator]
COc1ccccc1C(=O)N1CCN(Cc2cc(=O)oc3cc(C)ccc23)CC1,-14%,-8%
Cc1ccccc1CN1C(=O)C(O)(CC(=O)c2ccccc2)c2cc(Cl)ccc21 (stereo not given),-19%,-13%
CC(=O)N(c1cccc(Cl)c1)c1nc(COC(=O)C=C(C)C)cs1,19%,1%
Cc1noc(C)c1COc1ccc(C(=O)N2CCC(C(N)=O)CC2)cc1,10%,-2%
CC(C)C(C(=O)Nc1ccc(F)c(F)c1F)c1ccc(Cl)cc1 (stereo not given),u,u
CCOC(=O)Cc1nnc(SC(C)C(=O)Nc2cc(Cl)ccc2C)n1C (stereo not given),-2%,6%
COc1ccc(C(C)(C)C)cc1NC(=O)c1ccc(NC(=O)CC#N)cc1,0%,6%
COc1ccc(OC)c(C(=O)COC(=O)COc2cccc(Cl)c2)c1,-9%,1%

# Screening data from PubChem.
